Choline anaer gr: inhibitors of anaerobic choline-dependent gram-negative bacterial growth. 55,000 tested, 0.2% active. AID 1963822. calls only. Gram-negative bacterium anaerobic choline minimal medium, absorbance growth; active compounds read low; many inactives read as strong as hits in the columns shown;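 active = growth z-score on choline under -2 at 7 or 20 h with little or no fall on glycerol, limits in tiers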;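 note: stock transfer was 300 nL into about 50 µL; the organism is E. coli; final concentration not given here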
Choline anaer gr early: also measured in Choline anaer gr; calls as there; z-score; measured here: choline growth z-score, timepoint 1;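 score of optical density at 7 h as mean of two plates; lower means less growth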
* = called active by the depositor; i = inactive; & = joins results of further samples.

molecule	Choline anaer gr	Choline anaer gr early
CCCOc1ccc(Cn2c(=O)c3sccc3n3c(SCC)nnc23)cc1	i	-1.2
CCCS(=O)(=O)c1nc2ccc(NS(=O)(=O)c3ccccc3)cc2s1	i	-0.7
O=C(c1ccc(F)c(Cl)c1)N1CCC(c2nc(-c3ccc(Cl)cc3)no2)CC1	i	-0.11
CCOC(=O)c1nc2ccccc2[nH]c1=O	i	-1.1
CCc1c(C)nc2ncnn2c1NC1CC1	i	-0.62
C=CCNC(=O)Cc1csc(-c2ccccc2)n1	i	-1.8
CCc1ccc(-c2ccc(SCc3nc(-c4ccc5c(c4)OCO5)no3)nn2)cc1	i	-0.7
O=C(NCc1cccnc1)c1cnn2c3c(cnc12)CCCCCC3	i	0.41
Fc1ccc(-c2csc(Cc3nc(-c4ccc(Br)cc4)no3)n2)cc1	i	0.8
CCCN1C(SCC(=O)Nc2ccccc2)=NS(=O)(=O)c2ccccc21	i	-0.21
CCN1CCN(C(=O)c2cc3c(s2)CCN(C(C)=O)C3)CC1	i	0.46
CCn1nccc1-c1csc(S(=O)(=O)NCc2cccs2)c1	i	-1.4
Cc1ccc(C2=NN(C(=O)CCC(=O)O)C(c3cn(-c4ccccc4)nc3-c3ccc(C)cc3)C2)cc1 (stereo unspecified)	i	1.3
c1cc(N2CCOCC2)ccc1-c1noc(C2CCCC2)n1	i	0.5
CCOC(=O)c1nc(Nc2cccc(Cl)c2)c2c(C)noc2n1	i	-0.53
CCOc1ccc(-n2nnnc2CNC(=O)Nc2ccc(F)cc2)cc1	i	-0.82
O=C(CC1=NS(=O)(=O)c2ccccc2N1)N1CCN(c2ccccc2)CC1	i	0.52
COc1cc(NC(=O)CCc2c(C)nc3nc(CN)nn3c2C)cc(OC)c1	i	0.1
Cc1nc(N(C)C)cc(N2CCN(C(=O)Nc3ccccc3)CC2)n1	i	-0.21
Cc1cc(Nc2ccc(F)cc2F)nc(-n2nc(C)cc2C)n1	i	-1.8
Nc1nc2ccc(Cl)cc2c2nc(-c3ccco3)nn12	i	0.27&0.55&-0.09
CN(Cc1ccccc1)C(=O)CSc1nc(-c2ccc3c(c2)OCO3)nc2cc(=O)[nH]n12	i	-0.9
CN(C)S(=O)(=O)c1ccc(C(=O)N2CCN(c3ncnc4c3nnn4-c3ccccc3)CC2)cc1	i	0.2
Fc1cccc(CNC2=NCCNC23CCC(c2ccccc2)CC3)c1 (stereo unspecified)	i	0.31
Cc1nnc2ccc(NC3CC3)nn12	i	-0.25

One compound at a time (already shown). Order of values: Choline anaer gr	Choline anaer gr early
`CCn1nccc1-c1csc(S(=O)(=O)NCc2cccs2)c1` in the list: i	-1.4
`CCc1c(C)nc2ncnn2c1NC1CC1` in the list: i	-0.62
`Fc1cccc(CNC2=NCCNC23CCC(c2ccccc2)CC3)c1` (stereo unspecified) in the list: i	0.31
`CCc1ccc(-c2ccc(SCc3nc(-c4ccc5c(c4)OCO5)no3)nn2)cc1` in the list: i	-0.7
`CCN1CCN(C(=O)c2cc3c(s2)CCN(C(C)=O)C3)CC1` in the list: i	0.46

More records.
molecule	Choline anaer gr	Choline anaer gr early
Cc1ccc(NC(=O)CCC2=NS(=O)(=O)c3cc(Br)cnc3N2)cc1	i	0.62
Cc1sc(-c2noc(C(C)C)n2)cc1S(=O)(=O)N1CCC(C(=O)N2CCOCC2)CC1	i	0.34
CCC(=O)Nc1cccnc1-c1ccc(C(=O)Nc2cccc(Cl)c2)cc1	i	-0.67
CN(C)C(=O)c1ccc2c(c1)N(CC(=O)NC1CCCc3ccccc31)C(=O)C1CCCCN21 (stereo unspecified)	i	0.99
Cc1nn(-c2ccc3nnc(C)n3n2)c2c1C(c1ccccc1OCc1ccc(Cl)cc1)CC(=O)N2 (stereo unspecified)	i	-0.21
NCCCCNCCCN	i	0.51&0.33
N#Cc1cccc(CSc2nnc(-c3ccncc3)o2)c1	i	0.04
CCOC(=O)c1c(S(=O)(=O)N2CCCC(C(=O)Nc3ccc(C)cc3)C2)c(C)n(CC)c1C (stereo unspecified)	i	-0.63
COCC(=O)O[C@]1(CCN(C)CCCc2nc3ccccc3[nH]2)CCc2cc(F)ccc2[C@@H]1C(C)C	i	0.17&-0.74
Cc1cccc(CNC(=O)c2ccc3c(c2)sc2nc(-c4ccc(C)cc4C)cn23)c1	i	0.17
Cc1ccc(C2Nc3ccccc3NC3=C2C(=O)CC(c2ccccc2)C3)cc1 (stereo unspecified)	i	-0.03
CCN1CCc2nc3sc(C(=O)c4ccc(Cl)cc4)c(N)c3cc2C1	i	-0.17
CCc1ccc(NC(=O)NCc2nc(-c3ccc(OC)cc3)oc2C)cc1	i	1.2
Cc1ccc(-c2noc(Cc3nc(-c4ccc(Br)cc4)cs3)n2)cc1	i	2.4
Cc1ccccc1-c1csc(Nc2ccc(Br)cn2)n1	i	1.5
O=C(NC1CCCC1)c1sc(=S)n2c1[nH]c(=O)c1cc3c(cc12)OCO3	i	-0.67
CCC(Sc1[nH]c2ccccc2c(=O)c1C(=O)OC)C(=O)Nc1cccc(OC)c1 (stereo unspecified)	i	0.52
O=c1[nH]cc(S(=O)(=O)NC2CC3CCC2C3)c(=O)[nH]1 (stereo unspecified)	i	0.44
C=CCN(Cc1nc(-c2cccc(C)c2)no1)C(=O)Nc1cccc(C)c1	i	0.24
O=c1c(-c2ccc(Cl)cc2)c(N2CCOCC2)c1=O	i	0.78
O=C(O)CCC/C=C\C[C@H]1C(=O)C=C[C@@H]1/C=C/[C@@H](O)COc1ccccc1	i	0.98
Cc1ccccc1OCc1nnc(C(=O)Nc2ccc(C(=O)NCc3ccccn3)cc2)s1	i	0.89
Cc1cccc(-c2nc(C3CCN(C(=O)c4cc5ccccc5[nH]4)CC3)no2)c1	i	3
O=S(=O)(c1ccc2c(c1)CCC2)N1CCN(Cc2nc3cccnc3n2-c2cccc(F)c2)CC1	i	0.05
Cc1ccc(-c2nnc(C3CCN(S(=O)(=O)c4ccc(C(C)(C)C)cc4)CC3)o2)cc1	i	1.3
CCC1CCc2c(sc3ncnc(N4CCC(C)CC4)c23)C1 (stereo unspecified)	i	-0.14
NS(=O)(=O)c1ccc(CCNC(=O)C2CCCN(S(=O)(=O)c3cccc4nsnc34)C2)cc1 (stereo unspecified)	i	-0.4
CCOC(=O)C1CCN(c2ncc(S(=O)(=O)c3ccc(Cl)cc3)c(N)n2)CC1	i	-0.05
O=C1CC(c2ccc(Cl)cc2)c2cnn(-c3nc4ccccc4s3)c2N1 (stereo unspecified)	i	0.13
COc1ccc(OC)c(NC(=O)CSc2nccnc2N2CCSCC2)c1	i	-0.47
O=C(O)CC1C(=O)NCCN1CC1CCCCC1 (stereo unspecified)	i	-2.6
O=C(NCCCc1ccccc1)c1ccc(Cn2c(=O)c(=O)[nH]c3cccnc32)cc1	i	0.38
COCCN1CCN(C2CCN(C(=O)NC(C)C)CC2)C(=O)C1=O	i	-0.21
CCOC(=O)C(OC(=O)c1cccc(N2C(=O)c3c(C)nc4ccccc4c3C2=O)c1)c1ccccc1 (stereo unspecified)	i	-1.6
c1cn(Cc2noc(-c3ccc4c(c3)OCO4)n2)cn1	i	-0.1
CCCCCCCCCCCCCCCC(=O)N[C@H]1CCOC1=O	i	0.01
C[C@H](NCCc1ccc(O)cc1)[C@H](O)c1ccc(O)cc1	i	0.19
Cc1nc(-c2ccc(C)c(S(=O)(=O)NCC(=O)Nc3cccc(F)c3)c2)no1	i	0.87
COc1ccc(-c2nc(SCC(=O)Oc3cc(C)ccc3C(C)C)n3[nH]c(=O)cc3n2)cc1	i	1
Cc1ccc2nc(CNC(=O)c3nc(-c4ccc(N5CCC(C)CC5)cc4)no3)[nH]c2c1	i	0.97
Cc1ccc(NS(=O)(=O)c2cc(-c3nc(C(C)(C)C)cs3)cs2)c(C)c1	i	-0.98
COc1cc(Nc2nc(-c3nnn(-c4ccc(Br)cc4F)c3C)ns2)cc(OC)c1	i	0.65
COc1ccc(-c2noc(N3CCCC(C(=O)NCCc4ccc(S(N)(=O)=O)cc4)C3)n2)cc1 (stereo unspecified)	i	0.79
Cc1nc(OCC(=O)NC2CC2)c2c(C)c(C)oc2n1	i	0.48
Cc1nn(-c2ccc3nncn3n2)c2c1C(c1ccc(Cl)cc1)CC(=O)N2 (stereo unspecified)	i	1.1
Cc1ccc(S(=O)(=O)N2C(=O)CCC2C(=O)N(C)C2CCCCC2)cc1 (stereo unspecified)	i	0.46
CC(C)c1ccc(NC(=O)c2cccn3c(-c4ccc(F)cc4)nnc23)cc1	i	1.2
COc1cc(OC)cc(-c2noc(CSc3nc4cc5c(cc4c(=O)n3C3CC3)OCO5)n2)c1	i	-1.8
CCC(C)NC(=O)c1nc(Nc2ccccc2)c2ccccc2n1 (stereo unspecified)	i	-0.03
COc1ccc(OC)c(CNC(=O)c2nccnc2C(=O)O)c1	i	0.08

Following part:
molecule	Choline anaer gr	Choline anaer gr early
Cc1noc(C)c1C1CCCN1Cc1cn[nH]c1-c1cccs1 (stereo unspecified)	i	-1.8
Cc1nn(-c2nc3ccccc3s2)c2c1C(c1ccccc1OC1CCCC1)CC(=O)N2 (stereo unspecified)	i	1.1
O=C(CSCc1nc2cccnc2n1C1CCCCC1)NC1CCCC1	i	-0.12
CC1=C(/C=C/C(C)=C/C=C/C(C)=C\C(=O)O)C(C)(C)CCC1	i	0.77&0.41&-0.32
O=C(C1CCCN(c2nc3cccnc3s2)C1)N1CCN(c2ccc(Cl)cc2)CC1 (stereo unspecified)	i	0.26
Cc1ccc(-c2nc3nc(C)cc(N4CCCCC4C)n3n2)cc1 (stereo unspecified)	i	1.5
COc1cccc(N2CCN(S(=O)(=O)c3cc(-c4cc(C(F)(F)F)on4)cs3)CC2)c1	i	1.5
COc1cc(NC(=O)N2CCN(Cc3nc4cccnc4n3-c3ccccc3)CC2)cc(OC)c1	i	-0.06
Cc1cc2[nH]c(=O)[nH]c2cc1NS(=O)(=O)c1ccc(CC(C)C)cc1	i	1.2
c1ccc(C2C3=C(CCCC3)Nc3nc4ccccc4n32)cc1 (stereo unspecified)	i	0.93
CCCCSc1nnc2c(n1)OC(c1cc(OC)ccc1OC)N(C(C)=O)c1ccccc1-2 (stereo unspecified)	i	0.27
COc1ccc(CNC(=O)CCc2nc(-c3ccc(N4CCCC4)cc3)no2)cc1	i	0.3
O=C(c1cc2ccccc2[nH]1)N1CCN(c2ccc(-c3noc(C4CCC4)n3)cc2)CC1	i	1.4
O=C(Nc1ccccc1F)N1CCN(Cc2nc3cccnc3n2-c2cccc(F)c2)CC1	i	-0.75
O=C(CCc1nc(CSc2nc3ccccc3[nH]2)no1)Nc1ccc2c(c1)Cc1ccccc1-2	i	0.74
O=C(Nc1cccc2cccnc12)c1ccc(N2C(=O)[C@@H]3[C@H](C2=O)[C@@H]2C=C[C@H]3C2)cc1	i	0.26
Cc1cc(C)nc(SCCn2c(N3CCCCC3)nc3c2c(=O)[nH]c(=O)n3C)n1	i	0.53
CCCCN(C)c1ccc2nnc(CCc3nc(-c4cccc(C)c4)no3)n2n1	i	-0.16
Cc1cccc(-c2nnc(-c3nc(NCc4ccc(OC(C)C)cc4)c4ccccc4n3)o2)c1	i	0.73
COc1nc(C)ccc1-c1noc(-c2cccc(C)c2)n1	i	0.49
Cc1ccccc1NC(=O)Cn1nc2c3cc(-c4ccccc4)nn3ccn2c1=O	i	0.17
Cc1ccc2oc(C(=O)Nc3onc4c3CC(C)CC4)c(C)c2c1 (stereo unspecified)	i	0.68
Cc1ccc(C)c(S(=O)(=O)N2CCC(c3noc(-c4ccccc4)n3)CC2)c1	i	-1.2
O=C1OC(N2C(=O)CC[C@@H]2C(=O)O)c2ccccc21 (stereo partly specified)	i	0.95
CCCCCC(O)/C=C/C=O (stereo unspecified)	i	-0.97
O=C(NCc1ccccc1Br)c1cnn(-c2ccccc2)c1-n1cccc1	i	1.2
COc1cccc(NC(=O)N2CCN(c3cc(N(C)C)nc(C)n3)CC2)c1	i	0.01
CCc1ccc2c(c1)C(O)(C1SC(N)=NC1=O)C(=O)N2 (stereo unspecified)	i	-1.1
O=S(=O)(c1ccc(F)cc1F)N1CCC(c2noc(-c3cccc(F)c3)n2)CC1	i	1.4
CC(C)NC(=O)N1CCCC1c1ccc(Cl)cc1 (stereo unspecified)	i	0.04
O=C(Nc1ccc(Br)cc1)c1ccc(F)c(S(=O)(=O)NCCc2ccccc2)c1	i	-0.35
O=c1c2ccccc2n2c(SCc3cccc(F)c3)nnc2n1Cc1ccc(F)cc1	i	0.89
Cc1ccccc1C(=O)Nc1ccc2nc(N3CCC(N4CCCCC4)CC3)cc(C(=O)O)c2c1	i	-0.29
O=c1c(S(=O)(=O)c2ccc(F)cc2)c[nH]c2c(F)c(Cl)ccc12	i	1.3

Filtered by structure: the entries above with a furan ring, fused or not
molecule	Choline anaer gr	Choline anaer gr early
Nc1nc2ccc(Cl)cc2c2nc(-c3ccco3)nn12	i	0.27&0.55&-0.09
Cc1nc(OCC(=O)NC2CC2)c2c(C)c(C)oc2n1	i	0.48
Cc1ccc2oc(C(=O)Nc3onc4c3CC(C)CC4)c(C)c2c1 (stereo unspecified)	i	0.68

Assay outcomes from PubChem BioAssay.

These rows are one share of the data. The share of hits here may be higher or lower than overall.
